Compound activity deposited in PubChem BioAssay by several laboratories.
PrP 5UTR inh: suppresses PrP 5' UTR mRNA reporter expression; 0.35% of 340,000 active; inhibition, % (concentration not given with the values); cell-based PrP 5' UTR mRNA reporter, plate reader;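 active means every replicate at 50% or more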;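 further: 0 = median of the neutral control wells; tested in H4 reporter cells; numbers are from one replicate; inactives centre near -14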
Sa ugtP lethal: growth inhibition of S. aureus ugtP deletion strain; S. aureus RN4220 ugtP deletion, OD600 growth, 16 h; some inactives read as strong as hits; growth inhibition, % (test concentration not listed); AID 1259309; 0.54% of 330,000 active;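 active means z-score under -3 and OD600 up to 0.15 on both plates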;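 further: plate controls were untreated wells for no effect and antibiotic for full effect; wells of about 80 µL received 100 nL stock; the first replicate is given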
Bead autofluor: compound fluorescence in toxin protease inhibitor counterscreen; fluorescence intensity (no concentration beside the values); compound autofluorescence counterscreen, microsphere flow cytometry; hits give high values; AID 624483; 3.1% of 360,000 active;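 active means at least 3 SD above the mean of all compounds, about 16000 in these data; inconclusive means too few beads counted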;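 further: 100 nL of 1 mM stock went into each well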
Mtb hypoxia rep: Mtb hypoxia fluorescent reporter inhibition; M. tuberculosis hypoxia-regulated fluorescent reporter, fluorescence; fluorescence inhibition, % (test concentration not listed); 0.1% of 300,000 active; AID 1159583;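 active means 35 to 45% if threefold the growth effect, above 45% if 1.5-fold the growth effect; inactive means the rest, general growth blockers included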;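 further: wells of about 50 µL received 100 nL stock; 0% = vehicle wells and 100% = reference inhibitor wells; whole bacteria with a GFP reporter of the hypoxia response; strong numbers were not always called active; many hits fall short of the cut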
Sa RN4220 lethal: kills Staphylococcus aureus RN4220; S. aureus RN4220 growth, OD600, 16 h; inhibition, % (concentration not given with the values); 0.33% of 330,000 active; AID 1259311;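 active means z-score of -3 or lower and OD600 up to 0.18 on both plates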;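 further: plate controls were untreated cells for no effect and reference antibiotic for full effect; stock transfer was 100 nL into about 80 µL; one replicate is shown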
BJeLR viability: kills HRASV12-expressing BJeLR cells; BJeLR (HRASV12) viability, CellTiter-Glo ATP luminescence, 48 h; reference of the scale not given here; inhibition, % (concentration not given with the values); 0.17% of 300,000 active;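 active means replicate mean above 50%; inconclusive means above 50% but judged a plate artefact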;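 further: 50 nL library stock added to about 25 µL; numbers are from one replicate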
Mtb hypoxia rep growth: second read-out of Mtb hypoxia rep, no call of its own (marks repeat the call); growth inhibition, %; measured here: M. tuberculosis growth (absorbance);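 0% = vehicle and 100% = reference antibiotic; read after six days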
Active calls of the source: *; ? = inconclusive; . = no result given; & = joins results of further samples.

SMILES	PrP 5UTR inh	Sa ugtP lethal	Bead autofluor	Mtb hypoxia rep	Mtb hypoxia rep growth	Sa RN4220 lethal	BJeLR viability
COc1ccc(-n2c(SCC(=O)NNC(=O)c3ccccc3C)nnc2-c2ccncc2)cc1	-25	1	10434	2	-3	5.4	3
Nc1nc2nc(-c3ccc(F)cc3)cc(C(F)(F)F)n2n1	-25	5	4011	14	8	6.0	0
COc1cccc(CNC(=O)CCC2CCCN(C(=O)c3cc(C4CC4)[nH]n3)C2)c1 (stereo unspecified)	-21	3	2582	17	2	3.7	4
COc1ccc(-c2cc(CCCC(=O)N3CCN(c4ccc(OC)cc4)CC3)no2)cc1	-22	0	5874	-4	4	7.8	1
Cc1cc(Nc2ccc(C)c(Br)c2)n2nc(C)nc2n1	-2	-3	6074	.	.	-4.7	-5
Cc1cccc(Cn2cc(C=O)c3ccccc32)c1	19	3	3433	3	10	4.4	-4
O=[N+]([O-])c1ccc(CNCCc2ccccc2)cc1	-4	1	3686	2	9	2.0	-15
OCCn1nc2c3ccccc3nc-2n(-c2ccccc2)c1=S	-18	3	3165	-4	1	3.9	-8
Cc1ccc(/C=N/NC(=O)c2cccc(S(=O)(=O)Nc3cccc(Cl)c3)c2)o1	-21	.	3190	.	.	.	5
O=C1c2ccccc2C(=O)N1CCCCSc1nc2ccccc2c(=O)n1CCCN1CCOCC1	-7	-20	3819	4	7	0.2	-8
NC1=NC(c2ccccc2Cl)n2c(nc3ccccc32)N1 (stereo unspecified)	-33	-4	5207	17	7	2.7	6
C#CCOCCOCCOCCNc1nc(N2CCN(C(=O)C(CCC(=O)O)n3cc(C(N)Cc4ccc(O)cc4)nn3)CC2)nc(N2CCN(C(=O)C(Cc3cc4ccccc4[nH]3)n3cc(C(N)C(C)CC)nn3)CC2)n1 (stereo unspecified)	.	-1	.	1	11	0.2	.
CCOc1ccc(C(=O)CC(C(=O)O)N2CCN(Cc3ccccc3)CC2)cc1 (stereo unspecified)	-11	12	6544	10	3	5.5	.
CCOC(=O)Cc1nnc(NC(=O)CSc2nnc3c4ccccc4n(C(C)C)c3n2)s1	-5	1	2749	.	.	2.1	-6
CCOC(=O)C1C(c2cccnc2)NC(=O)NC1(O)C(F)(F)F (stereo unspecified)	-8	-1	4733	3	13	3.3	-3
O=C(COC(=O)CC1CCCC1)Nc1ccc(OC(F)F)cc1	-9	7	4061	18	15	8.6	4
Cc1cc2ncn(/N=C/c3ccc(-c4ccccc4)o3)c2cc1C	-20	.	21563*	.	.	.	-1
O=[N+]([O-])c1cccc(S(=O)(=O)NCCCn2ccnc2)c1	-30	-1	5215	-1	4	-4.9	-2
Cc1cc(-c2nnc(-c3ccccc3)c(-c3ccccc3)n2)c(C)o1	-1	80	5886	7	8	7.5	3
CCCCn1nnc(NC(=S)NC(=O)c2cccs2)n1	-28	-9	2193	11	6	4.6	-2
CCCCNc1c(-c2cccc(-c3cc(C(C)=O)cs3)c2)nc2cc(C)ccn12	-4	16	3080	11	10	17	1
NC(=O)C1CCN(S(=O)(=O)c2cc3c4c(c2)CCN4C(=O)CC3)CC1	-34	6	6383	1	-1	1.1	4
COCCOC(=O)C1=C(C)NC(=O)NC1c1c(F)cccc1Cl (stereo unspecified)	-24	10	9035	2	5	4.8	6
COC(=O)C1=C(C)N(c2ccc(Cl)cc2)/C(=C/c2cccs2)C1=O	0	.	2042	.	.	.	9
CCOc1cc(/C=N/NC(=O)c2ccncc2)ccc1OS(C)(=O)=O	-5	.	2017	.	.	.	-11
SMILES	PrP 5UTR inh	Sa ugtP lethal	Bead autofluor	Mtb hypoxia rep	Mtb hypoxia rep growth	Sa RN4220 lethal	BJeLR viability
CCN(CC)CCNC(=O)c1cc2c(-c3ccc(Cl)cc3)nn(C)c2s1	-12	3	5808	.	.	-6.2	31
CSc1nnc(-c2ccc(Cl)cc2Cl)o1	-46	-8	3239	12	12	-9.6	-6
Cc1cc(C(=O)OCC(=O)N(C)c2ccccc2)c2ccccc2n1	1	6	3781	10	6	5.1	.
CCn1c(O)c(/C=N/NC(=O)c2ccncc2)c(=O)n(CC)c1=S	4	.	2466	.	.	.	-5
CCOc1cc(S(=O)(=O)NCCCN2CCOCC2)ccc1F	-3	6	5463	6	11	3.1	-2
Cc1nnc2sc(-c3cccc4ccccc34)nn12	-25	-6	5696	17	-14	12	8
O=C(CN1C(=O)c2cccc3cccc1c23)Nc1ccccc1C(=O)NCc1ccco1	2	-5	3527	.	.	1.0	4
CCOC(=O)CNC(=O)OC1CCN2Cc3ccccc3N=C12 (stereo unspecified)	-14	6	3660	5	7	-2.1	5
O=C(CCC(=O)NCCO)NCCO	24	-5	2116	-12	-26	-1.5	-4
CC(C)COc1cccc(C(=O)Nc2cc(S(=O)(=O)N3CCOCC3)ccc2N2CCCC2)c1	-22	6	3917	7	1	2.5	.
CSCCC(NS(=O)(=O)c1ccc(Cl)cc1)C(=O)OCc1cccc(Cl)c1 (stereo unspecified)	-14	-19	2386	-6	17	-0.3	2
CCC(OC(=O)c1cccs1)C(=O)NCc1ccco1 (stereo unspecified)	-13	-2	3631	2	6	-2.6	-10
COCCSc1nnc(NC(=O)c2ccc(OC)c([N+](=O)[O-])c2)s1	-27	4	4499	7	11	6.3	-1
CC1CCCC(NC(=O)COC(=O)c2ccc(Br)o2)C1C (stereo unspecified)	-4	7	6511	8	2	5.2	.
Cc1ccc(NC(=O)C(C)SCc2ccccc2)cc1 (stereo unspecified)	-24	13	3778	3	-1	1.2	-1
O=C(C1CC(=O)N(c2ccc(F)cc2)C1)N1CCCCCC1 (stereo unspecified)	-27	11	4091	2	-8	4.5	2
Cc1c(C(=O)N2CC(C)OC(C)C2)oc2ccccc12 (stereo unspecified)	-20	6	8191	8	3	3.1	-17
Cc1ccc(C)c(S(=O)(=O)N2CCN(C(C)C(=O)Nc3ccccc3-c3ccccc3)CC2)c1 (stereo unspecified)	-23	-11	1959	-3	4	6.6	-22
CC(C)CNS(=O)(=O)c1ccc(CCC(=O)NCc2cccnc2)cc1	-15	-2	.	2	0	-1.4	-5
CCOc1cc(/C=C2\CCC/C(=C\c3cc(Cl)c(O)c(OCC)c3)C2=O)cc(Cl)c1O	-14	8	2663	.	.	8.0	1
COc1ccc(C(CNC(=O)c2cc(S(=O)(=O)NCc3ccccc3)ccc2C)N2CCOCC2)cc1 (stereo unspecified)	-3	9	4344	3	-2	5.1	-4
CN(C(=O)Oc1ccc([N+](=O)[O-])cc1)c1ccccc1	-9	4	2043	1	-8	-1.9	1
Cc1cc(-c2cc(C)c(N)c(C)c2)cc(C)c1N	-13	0	5505	9	3	1.8	.
CNC(=O)c1cc2cc(OC)ccc2n1CCN(C)C	-4	4	4572	.	.	1.0	12
CCCCC(=O)Nc1ccc(C(=O)OC2CCCCC2)cc1	-14	-13	2618	.	.	-2.2	1

The last two compounds of the section above lead into the next.
SMILES	PrP 5UTR inh	Sa ugtP lethal	Bead autofluor	Mtb hypoxia rep	Mtb hypoxia rep growth	Sa RN4220 lethal	BJeLR viability
CNC(=O)c1cc2cc(OC)ccc2n1CCN(C)C	-4	4	4572	.	.	1.0	12
CCCCC(=O)Nc1ccc(C(=O)OC2CCCCC2)cc1	-14	-13	2618	.	.	-2.2	1
O=c1c(-c2ccccc2)c(O)c2ccccc2n1-c1ccccc1	-20	21	3035	15	7	-0.7	1
O=C(NC1CC2CCC(C1)N2C(=O)NCc1ccccc1)C1CC1 (stereo unspecified)	-19	3	6736	7	-3	2.1	-4
CCOc1cccc(C(=O)Nc2cccc(C(C)=O)c2)c1	-50	10	10233	-3	2	6.6	-12
Cc1nc(-c2cc(-c3nc(-c4ccc(C(C)(C)C)cc4)no3)no2)cs1	-13	14	4050	-1	-7	-6.4	-3
CC(=O)N1CCC(C(=O)Nc2ccc(S(=O)(=O)NCCc3ccccc3)cc2)CC1	-18	-2	3674	-2	-5	-6.3	0
COc1ccccc1/C=N/Nc1nc(C)c(C(C)=O)s1	-47	.	5390	.	.	.	3
CCCCN(C(=O)C(C)Oc1cccc(Cl)c1)c1c(N)n(CCC)c(=O)[nH]c1=O (stereo unspecified)	-20	-1	5927	11	2	1.8	4
O=C(Nc1nnc(S(=O)(=O)N2CCCCCC2)s1)c1cccc(Br)c1	-9	10	5837	13	4	9.2	15
Cc1cccc(C)c1NC(=O)CSc1nnc(C)c(=O)[nH]1	-11	3	2038	-3	-5	7.1	-10
NC(=O)NC(Cc1ccccc1)C(=O)O (stereo unspecified)	11	0	8704	0	5	2.6	7
C=CCNC(=O)CN(c1cccc(Br)c1)S(C)(=O)=O	-27	1	8176	13	11	0.8	-5
Cc1ccc(C)c(N2CCN(C(c3ccncc3)c3nnnn3Cc3ccccc3)CC2)c1 (stereo unspecified)	-13	1	6292	17	7	2.4	8
COc1ccc(C(=O)NCCN2CCOCC2)c(OC)c1	0	1	5080	-15	-1	-4.1	7
Cc1cccn2c(=O)c3cc(C(N)=S)c(=N)n(CCCN4CCOCC4)c3nc12	25	-6	3467	-8	-6	-0.9	8
CC(C)N(Cc1nccn1C)C(=O)CC1C(=O)NCCN1Cc1ccccc1C(F)(F)F (stereo unspecified)	-10&1	7	5165	17	10	7.3	2
CCc1ccc(N2CN(CCc3ccccc3)CNC2=S)cc1	.	5	3708	.	.	4.3	-4
COc1ccc(-n2nc(C(=O)NCC(=O)Nc3cccc(C)n3)c3ccccc3c2=O)cc1	-17	-5	?	23	2	9.4	4
COc1ccccc1NC(=O)COC(=O)c1ccc(S(=O)(=O)NCc2ccco2)cc1	0	-1	2670	.	.	2.8	-7
COc1cc(-c2n[nH]c(=S)n2/N=C/c2cccn2C)cc(OC)c1OC	-27	.	3304	.	.	.	1
CCOc1ccc(OCC)c(NC(=O)CN2CCN(c3ccc(C)cc3C)CC2)c1	4	1	4571	.	.	-4.4	-4
Cc1cccc(NC(=S)NC2CCCC2)c1C	7	4	3661	-11	-8	2.8	5
O=C(c1ccc(Cl)cc1)[C@@H]1[C@@H]2C(=O)N(c3ccccc3)C(=O)[C@@H]2C2c3ccccc3C=NN21 (stereo partly specified)	4	3	2031	-7	0	-1.1	7
Cc1cccc(NS(=O)(=O)c2ccc3[nH]c(=O)cc(C(=O)O)c3c2)c1	-28	.	3460	.	.	.	2
O=C(NN=C1CC(c2ccccc2)Oc2ccccc21)c1ccccn1 (stereo unspecified)	.	7	.	8	-4	-0.3	.
Cc1csc(CN(C)C(=O)CC2C(=O)NCCN2Cc2ccc(F)cc2Cl)n1 (stereo unspecified)	-16	-5	5330	1	1	4.3	-9
SMILES	PrP 5UTR inh	Sa ugtP lethal	Bead autofluor	Mtb hypoxia rep	Mtb hypoxia rep growth	Sa RN4220 lethal	BJeLR viability
O=C(c1ccc(OC2CCN(C/C=C/c3ccccc3)CC2)cc1)N1CCCC1	-13	-10	6657	1	0	-0.6	-10
Nc1nc(N)c2cnnn2n1	-19	6	3025	17	9	2.3	.
Cc1onc(-c2ccccc2)c1C(=O)Nc1ccc(Br)cc1Cl	15	0	4993	-5	-7	10	-5
Cc1cc(C)nc(SC2CCCCC2NS(=O)(=O)c2ccccc2)n1 (stereo unspecified)	-24	3	2689	3	-1	7.4	4
C=CCn1c(-c2ccccc2)nc(=S)c2c1CC(C)(C)OC2	-29	-1	10314	2	12	1.4	-8
COc1cc(OC)c(C=Nn2c(C)nnc2C)c(OC)c1	.	-2	.	-6	-1	1.6	.
CCC(=O)Nc1nnc(SCc2cccc(F)c2)s1	-8	-5	3284	4	4	7.9	7
Cc1cccc(-n2c(O)c(C=Nc3ccc(S(N)(=O)=O)cc3)c(=O)[nH]c2=O)c1	-21	4	4410	7	3	4.4	5
O=[N+]([O-])c1cnccc1Nc1ccccc1	-13	0	4113	6	0	9.3	-3
O=C(CCNS(=O)(=O)c1ccc(Br)cc1)NCC1CCCO1 (stereo unspecified)	-43	1	3963	9	3	0.6	.

Single records, as listed above. Order of values: PrP 5UTR inh | Sa ugtP lethal | Bead autofluor | Mtb hypoxia rep | Mtb hypoxia rep growth | Sa RN4220 lethal | BJeLR viability
Cc1cc(C)nc(SC2CCCCC2NS(=O)(=O)c2ccccc2)n1 (stereo unspecified) is entered as -24 | 3 | 2689 | 3 | -1 | 7.4 | 4
Cc1nnc2sc(-c3cccc4ccccc34)nn12 is entered as -25 | -6 | 5696 | 17 | -14 | 12 | 8
